Screening results (PubChem BioAssay)
Vaccinia stage: Vaccinia orthopox stage-specific inhibition. Vaccinia-infected cells, mCherry/Venus stage reporter fluorescence; active compounds read low; some inactives read as strong as hits. activity change (mCherry), % (no concentration beside the values). actives 0.01% (n = 89,000). AID 1053133;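 active = mCherry past -33% and 40 or more points under the early reporter, replicates agreeing; inconclusive = past -33% without that gap or agreement; tested in A549 cells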;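 note: scaled between vehicle wells and reference inhibitor wells; 23 nL library stock went into each well; one replicate is shown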
Vaccinia stage Venus: further read-out of Vaccinia stage, marked with its call; activity change (Venus), %; measured here: Venus reporter, other viral stage;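 negative = less Venus signal; first of two replicates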
* hit, by the source's call; ? = inconclusive; / = not tested or not shown; & = joins results of further samples.

SMILES	Vaccinia stage	Vaccinia stage Venus
O=S(=O)(N[C@@H]1CC[C@@H](CCn2cc(-c3cccnc3)nn2)O[C@@H]1CO)c1ccc(Cl)cc1	-3	1
C[C@@H]1CN([C@H](C)CO)C(=O)Cc2cc(NC(=O)CCN3CCOCC3)ccc2O[C@H]1CN(C)Cc1ccccc1	-7	-8
CCCNC(=O)C[C@@H]1C[C@H]2c3cc(NS(=O)(=O)c4cccc(OC)c4)ccc3O[C@H]2[C@H](CO)O1	7	7
COc1ccc(S(=O)(=O)Nc2ccc3c(c2)C(=O)N([C@@H](C)CO)C[C@@H](C)[C@@H](CN(C)C(=O)Nc2ccc(F)cc2)OCCCC[C@H](C)O3)cc1	-7	-7
CO[C@H]1CN(C)C(=O)c2ccc(NC(=O)C3CC3)cc2OC[C@H](C)N(Cc2cccc(F)c2)C[C@@H]1C	-14	-9
O=C(C[C@@H]1C[C@H]2c3cc(NS(=O)(=O)c4ccc(F)cc4)ccc3O[C@H]2[C@@H](CO)O1)NC1CCCCC1	-11	3
C[C@@H]1CN([C@H](C)CO)C(=O)c2cccc(NC(=O)Nc3ccccc3)c2O[C@@H]1CN(C)Cc1ccc(C(=O)Nc2ccccc2N)cc1	-7	-4
NC(=O)NCC#Cc1ccc2c(c1)[C@]1(C(=O)N2)[C@H](C(N)=O)[C@H]2C(=O)O[C@H](c3ccccc3)[C@H](c3ccccc3)N2[C@@H]1c1ccccc1OCCO	12	11
C[C@@H]1CN([C@@H](C)CO)C(=O)c2cc(NC(=O)Nc3cccc4ccccc34)ccc2O[C@H]1CN(C)S(=O)(=O)c1cccs1	22	18
C[C@@H]1CN([C@@H](C)CO)C(=O)c2cc(-c3cccnc3)cnc2O[C@H]1CN(C)Cc1ccc(-c2ccccc2)cc1	?	/

Additional compounds follow.
SMILES	Vaccinia stage	Vaccinia stage Venus
C[C@H]1CN([C@@H](C)CO)C(=O)c2cc(Br)cnc2O[C@H]1CN(C)C(=O)c1ccccn1	7&24	6&16
COCC#Cc1cnc2c(c1)C(=O)N([C@@H](C)CO)C[C@H](C)[C@@H](CN(C)C(=O)Nc1cc(F)ccc1F)O2	15	-4
COc1ccccc1CNC(=O)C[C@@H]1C[C@@H]2c3cc(NC(=O)NC4CCCC4)ccc3O[C@@H]2[C@H](CO)O1	5	4
Cc1cc(C(=O)Nc2cccc3c2O[C@H](CN(C)Cc2ccc(-c4ccccc4)cc2)[C@H](C)CN([C@@H](C)CO)C3=O)n(C)n1	-24	-18
C[C@@H]1CN([C@H](C)CO)S(=O)(=O)c2ccc(-c3ccccc3F)cc2O[C@H]1CN(C)Cc1cncnc1	-10	-13
COC(=O)C[C@H]1C=C[C@@H](NC(=O)Nc2ccc(C(F)(F)F)cc2)[C@H](CO)O1	-5	1
C[C@H](CO)N1C[C@H](C)[C@H](CN(C)C(=O)C2CCCCC2)OCCCC[C@H](C)Oc2ccc(NC(=O)Nc3ccccc3)cc2C1=O	?	/
C[C@@H]1CCCCO[C@@H](CN(C)C(=O)C2CCCCC2)[C@H](C)CN([C@H](C)CO)C(=O)c2cc(NS(=O)(=O)c3cn(C)cn3)ccc2O1	33	18
COc1ccc(C(=O)N2C[C@@H]3[C@H](c4ccccc42)[C@H](CO)N3C(=O)Cc2ccccn2)cc1	-11	-13
COCC(=O)N(C[C@@H]1[C@@H](c2ccccc2)[C@H](CO)N1C(=O)NC(C)C)C(C)C	5	5

(further entries)
SMILES	Vaccinia stage	Vaccinia stage Venus
COc1ccc(NC(=O)N(C)C[C@H]2Oc3cc(-c4ccc(C)cc4)ccc3S(=O)(=O)N([C@@H](C)CO)C[C@H]2C)cc1	?	/
COc1ccc(CNC(=O)N(C)C[C@H]2OCc3ccccc3-c3ccccc3C(=O)N([C@@H](C)CO)C[C@H]2C)cc1	13	9
Cc1nn(C)cc1NC(=O)C[C@@H]1CC[C@H]2[C@@H](COc3ccc(NC(=O)c4cccc(F)c4)cc3C(=O)N2C)O1	5	8
CCC(=O)N1CCC2(CC1)CN(C(=O)CN1CCOCC1)[C@@H](CO)c1[nH]c3cc(OC)ccc3c12	-1	3
CO[C@H]1CC[C@H]2CCN(C)C(=O)[C@H](C)[C@H](OC)CN(C)C(=O)c3cc(C#N)ccc3OC[C@H]1O2	14	12
O=C(Nc1cccc(Cl)c1)N[C@@H]1CC[C@@H](CCn2cc(Cc3ccccc3)nn2)O[C@H]1CO	-19	-12
Cc1noc(C)c1NC(=O)Nc1ccc2c(c1)C(=O)N([C@@H](C)CO)C[C@@H](C)[C@@H](CN(C)Cc1ccc(C(F)(F)F)cc1)O2	1	6
O=C(C[C@@H]1CC[C@@H](NC(=O)c2ccccn2)[C@H](CO)O1)NCc1cc(F)cc(F)c1	10	9
COc1ccc(CN(C)C[C@@H]2Oc3ccc(NC(=O)CCCCCC(=O)Nc4ccccc4N)cc3CC(=O)N([C@H](C)CO)C[C@@H]2C)cc1	-4	-7
C[C@H]1CN([C@@H](C)CO)C(=O)c2cccc(NC(=O)Nc3ccccc3)c2O[C@@H]1CN(C)S(C)(=O)=O	-8	-7

Further entries follow:
SMILES	Vaccinia stage	Vaccinia stage Venus
C[C@@H]1CN([C@H](C)CO)C(=O)c2cc(NC(=O)Nc3ccc(C(F)(F)F)cc3)ccc2O[C@@H](C)CCCCO[C@@H]1CN(C)S(=O)(=O)c1ccc(F)cc1	6	12
CCC(=O)N1[C@H](CN(CC)C(=O)c2ccc(F)cc2)[C@@H](c2ccccc2)[C@@H]1CO	13	7
COCC#Cc1ccc([C@H]2[C@H]3CN(C(=O)C4CCCCC4)CC(=O)N3[C@H]2CO)cc1	9	16
CNC[C@@H]1OCCCC[C@@H](C)Oc2ccc(NC(=O)c3ccccc3)cc2C(=O)N([C@H](C)CO)C[C@@H]1C	-7	11
CN(C)C(=O)C[C@@H]1CC[C@@H]2[C@@H](COc3ccc(NC(=O)C4CCCCC4)cc3C(=O)N2C)O1	17	9
CCS(=O)(=O)N(C)C[C@@H]1OCc2ccccc2-c2c(n(C)c3ccccc23)C(=O)N([C@@H](C)CO)C[C@@H]1C	8	-1
COc1cccc(C#Cc2ccc([C@@H]3[C@@H](C#N)N(C(=O)C4CCOCC4)[C@H]3CO)cc2)c1	-19	-9
CCCC(=O)Nc1ccc2c(c1)C(=O)N(C)C[C@@H](OC)[C@H](C)CN(CCc1ccccc1)[C@@H](C)CO2	-18	-14
CCC(=O)N[C@H]1CC[C@@H](CC(=O)NCc2ccc(OC)cc2)O[C@@H]1CO	1	7
O=C(C[C@H]1CC[C@@H](NC(=O)C2CC2)[C@@H](CO)O1)NCc1ccncc1	9	9

Four records drawn at random from those above, as already listed:
SMILES	Vaccinia stage	Vaccinia stage Venus
COc1cccc(C#Cc2ccc([C@@H]3[C@@H](C#N)N(C(=O)C4CCOCC4)[C@H]3CO)cc2)c1	-19	-9
CCCC(=O)Nc1ccc2c(c1)C(=O)N(C)C[C@@H](OC)[C@H](C)CN(CCc1ccccc1)[C@@H](C)CO2	-18	-14
O=C(C[C@H]1CC[C@@H](NC(=O)C2CC2)[C@@H](CO)O1)NCc1ccncc1	9	9
CN(C)C(=O)C[C@@H]1CC[C@@H]2[C@@H](COc3ccc(NC(=O)C4CCCCC4)cc3C(=O)N2C)O1	17	9

Following part.
SMILES	Vaccinia stage	Vaccinia stage Venus
COc1cccc(S(=O)(=O)N2CC[C@@H]3[C@@H](CO)Nc4ccc(-c5ccccc5OC)cc4[C@@H]32)c1	0	-5
O=C(C[C@@H]1CC[C@@H]2[C@H](COC[C@@H](O)CN2C(=O)c2ccccc2F)O1)N1CCOCC1	15	14
CCCC#Cc1ccc([C@H]2[C@@H](CO)N(C(=O)C3CCCCC3)[C@H]2C#N)cc1	-11	-6
C[C@@H]1CN([C@@H](C)CO)C(=O)c2cc(NC(=O)Nc3ccc(F)cc3)ccc2O[C@@H](C)CCCCO[C@H]1CN(C)C(=O)Cc1ccccc1	-11	-7
C/C=C/c1ccc([C@H]2[C@@H](CO)N(C(=O)CN(C)C)C23CN(C(=O)C2CC2)C3)cc1	10	8
COCC(=O)Nc1ccc2c(c1)[C@H]1C[C@@H](CC(=O)NCc3ccc(OC)cc3)O[C@@H](CO)[C@H]1O2	11	8
C[C@H](CO)N1C[C@H](C)[C@@H](CN(C)Cc2ccc(C(=O)O)cc2)Oc2ccc(NC(=O)Nc3cccc4ccccc34)cc2C1=O	16	11
CN(C)C(=O)C[C@H]1CC[C@H]2[C@@H](COC[C@@H](O)CN2S(=O)(=O)c2ccccc2Cl)O1	14	11
COc1ccc(CN(C)C[C@H]2Oc3c(NS(=O)(=O)c4ccc(OC)cc4)cccc3C(=O)N([C@@H](C)CO)C[C@H]2C)cc1	9	9
C[C@@H]1CN([C@@H](C)CO)C(=O)Cc2cc(NC(=O)NC3CCCCC3)ccc2O[C@@H]1CN(C)C	21	8

Later entries.
SMILES	Vaccinia stage	Vaccinia stage Venus
Cc1ccc(S(=O)(=O)N(C)C[C@@H]2Oc3ccc(NC(=O)CCCN(C)C)cc3CC(=O)N([C@H](C)CO)C[C@H]2C)cc1	8	6
O=C(C[C@@H]1C=C[C@H](NC(=O)c2cccc(F)c2)[C@H](CO)O1)NCc1ccc(Oc2ccccc2)cc1	-34	-18
C[C@@H]1CN([C@H](C)CO)C(=O)c2cc(NS(=O)(=O)c3ccc(Cl)cc3)ccc2O[C@@H]1CN(C)C	-4	-4
CN(C)CC(=O)Nc1ccc2c(c1)[C@H]1C[C@H](CC(=O)NCc3ccc(-c4ccccc4)cc3)O[C@@H](CO)[C@H]1O2	-22	-15
CC(C)C#Cc1ccc([C@H]2[C@H]3CN(C(=O)c4ccccn4)CC(=O)N3[C@H]2CO)cc1	4	-4
Cc1noc(C)c1S(=O)(=O)N(C)C[C@@H]1Oc2ccc(NC(=O)CCCN(C)C)cc2C(=O)N([C@H](C)CO)C[C@@H]1C	7	4
C[C@H](CO)N1C[C@H](C)[C@@H](CN(C)Cc2ccc(C(=O)O)cc2)OCCCC[C@H](C)Oc2ccc(NS(=O)(=O)c3ccc(F)cc3)cc2C1=O	33	3
CO[C@H]1CN(C)C(=O)c2ccc(NS(=O)(=O)c3ccccc3)cc2OC[C@H](C)N(Cc2cccnc2)C[C@@H]1C	4	2
C[C@@H]1CN([C@@H](C)CO)C(=O)Cc2cc(NC(=O)Nc3cccc4ccccc34)ccc2O[C@H]1CN(C)C	8	-1
Cc1ccc(S(=O)(=O)Nc2ccc3c(c2)C(=O)N([C@H](C)CO)C[C@H](C)[C@H](CN(C)C(=O)Nc2ccccc2)OCCCC[C@H](C)O3)cc1	-34	-25

Looked up above:
Vaccinia stage, `Cc1noc(C)c1S(=O)(=O)N(C)C[C@@H]1Oc2ccc(NC(=O)CCCN(C)C)cc2C(=O)N([C@H](C)CO)C[C@@H]1C` = 7
Vaccinia stage Venus, `Cc1ccc(S(=O)(=O)N(C)C[C@@H]2Oc3ccc(NC(=O)CCCN(C)C)cc3CC(=O)N([C@H](C)CO)C[C@H]2C)cc1` = 6
Vaccinia stage, `C[C@H](CO)N1C[C@H](C)[C@@H](CN(C)Cc2ccc(C(=O)O)cc2)OCCCC[C@H](C)Oc2ccc(NS(=O)(=O)c3ccc(F)cc3)cc2C1=O` = 33

(next part)
SMILES	Vaccinia stage	Vaccinia stage Venus
C[C@H](CO)N1C[C@H](C)[C@@H](CN(C)S(=O)(=O)c2ccc(Cl)cc2)OCc2cnnn2CCCC1=O	-4	0
Cc1noc(C)c1NC(=O)Nc1ccc2c(c1)CC(=O)N([C@@H](C)CO)C[C@H](C)[C@H](CN(C)C(=O)Nc1c(C)noc1C)O2	2	1
CO[C@H]1CN(C)C(=O)c2ccc(NC(=O)NC(C)C)cc2OC[C@@H](C)N(Cc2ccccc2)C[C@@H]1C	-27	-19
Cc1ccc(-c2ccc3c(c2)O[C@H](CN(C)S(C)(=O)=O)[C@H](C)CN([C@@H](C)CO)S3(=O)=O)cc1	-24	-19
O=C(Nc1ccc(Cl)cc1)N1C[C@H]2[C@@H](c3ccccc31)[C@H](CO)N2C(=O)c1cccnc1	-7	-1
CC(C)NC(=O)N1C[C@H]2[C@@H](c3ccccc31)[C@H](CO)N2C(=O)c1ccncc1	15	10
C[C@@H](O)C#Cc1cnc2c(c1)C(=O)N([C@@H](C)CO)C[C@H](C)[C@H](CN(C)C(=O)Nc1ccc(F)cc1)O2	8	13
C[C@H](CO)N1C[C@H](C)[C@H](CN(C)CC2CC2)Oc2cc(-c3cccnc3)ccc2S1(=O)=O	3	0
COc1ccc2c3c(n(C)c2c1)[C@H](CO)NCC31CCN(CC2CCCC2)CC1	?	/
CO[C@H]1CN(C)C(=O)c2cc(NC(=O)C3CC3)ccc2OC[C@@H](C)N(C)C[C@H]1C	-2	-7

Other entries follow.
SMILES	Vaccinia stage	Vaccinia stage Venus
CCCC(=O)Nc1ccc2c(c1)C(=O)N(C)C[C@H](OC)[C@H](C)CN(C(C)=O)[C@H](C)CO2	20	12
C[C@H]1CN([C@@H](C)CO)C(=O)c2cccc(NC(=O)C3CCCCC3)c2O[C@@H]1CN(C)Cc1ccc(C(=O)O)cc1	4	4
C[C@@H]1CCCCO[C@H](CN(C)C(=O)Nc2cccc3ccccc23)[C@@H](C)CN([C@H](C)CO)C(=O)c2cc(NS(C)(=O)=O)ccc2O1	41	22
O=C(C[C@H]1C=C[C@H](NC(=O)Cc2ccccn2)[C@@H](CO)O1)NCCCN1CCOCC1	-2	29
C/C=C/c1cnc2c(c1)C(=O)N([C@H](C)CO)C[C@@H](C)[C@@H](CN(C)C(=O)Nc1ccc(C(F)(F)F)cc1)O2	-14	-18
C[C@H]1CN([C@@H](C)CO)C(=O)Cc2cc(NC(=O)C3CCCCC3)ccc2O[C@H]1CN(C)Cc1ccc(Oc2ccccc2)cc1	-10	-6

Only part of the results is shown (hit frequency here may not be typical).
